Assay outcomes deposited in PubChem by several laboratories.
CBX7 AlphaScr: CBX7 chromodomain binding inhibitors, primary screen, biochemical, AlphaScreen; AID 1224903, 2016; normalised signal (fraction of DMSO) (no concentration beside the values); AlphaScreen His6-CBX7 / biotin-H3K27me3 peptide binding; hits give low values; actives 1.1% (n = 66,000); in the data active = normalised signal below about 0.5;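 note: 100 nL library stock added to about 20 µL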
Target sequence (O95931 whole entry, looked up): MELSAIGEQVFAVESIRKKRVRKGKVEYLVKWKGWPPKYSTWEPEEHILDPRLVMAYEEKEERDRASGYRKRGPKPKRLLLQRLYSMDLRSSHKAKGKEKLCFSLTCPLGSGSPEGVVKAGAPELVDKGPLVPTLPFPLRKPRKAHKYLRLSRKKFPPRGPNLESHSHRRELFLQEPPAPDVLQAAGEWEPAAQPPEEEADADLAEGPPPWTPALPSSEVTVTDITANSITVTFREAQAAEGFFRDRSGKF
CBX7 AlphaScr z-score: further read-out of CBX7 AlphaScr, marked with its call; z-score; measured here: z-score of CBX7 signal; some inactives read as strong as hits; reference of the scale not given here;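 same signal on another scale; lower means less binding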
* hit, by the source's call; & = joins results of further samples.

SMILES | CBX7 AlphaScr | CBX7 AlphaScr z-score
COc1ccc(S(=O)(=O)N(CC(=O)Nc2ccc(C)c(C)c2)c2ccc(C)cc2)cc1 | 1.04 | 0.959
COc1ccc(CNC(=O)C2CCN(c3nnc(-n4cccc4)s3)CC2)cc1 | 1.01 | 0.366
CC1CCN(c2nc3ccc(C(=O)N4CCN(c5ncccn5)CC4)cc3s2)CC1 | 0.978 | -0.205
Clc1ccccc1-c1nc(-c2ccncc2)no1 | 1.14 | 2.12
Cc1cc2cc(CCNC(=O)c3ccc(S(=O)(=O)N4CCOCC4)cc3)c(=O)[nH]c2cc1C | 0.984 | -0.629
CCOc1ccc(NC(=O)CSc2nccn2-c2ccccc2)cc1 | 0.748 | -5.44
CCCCOc1ccc(C2(C)CC(=O)NC2=O)cc1 (stereo not drawn) | 0.984 | -0.595
Cc1nc2c(C(=O)NCCc3ccccc3)c[nH]n2c(=O)c1Cc1ccc(Cl)cc1 | 0.799 | -1.93
CCCc1cc(C(=O)Nc2c(C)nn(Cc3ccc(F)cc3)c2C)no1 | 1.03 | 1.13
O=C(NCc1ccccc1Cl)c1ccc2c(c1)ncn2-c1ccc(F)cc1F | 0.974 | -0.632
O=C(c1cc(-c2ccc(Br)cc2)on1)N1CCN(c2ccc(F)cc2)CC1 | 0.991 | -0.197
CC(NC(=O)C1CCCN1S(=O)(=O)c1ccc2c(c1)n(C)c(=O)c(=O)n2C)c1ccccc1 (stereo not drawn) | 1.02 | 0.0242
COc1cccc(C(=O)NCCc2cc3c(C)ccc(C)c3[nH]c2=O)c1OC | 1.1 | 0.182
O=C(NCc1ccccc1)c1ccc2c(c1)N(Cc1ccc(F)cc1)CCS2 | 0.75 | -0.331
O=C(NCCc1ccc(Cl)cc1)c1cnn2c(C(F)(F)F)cc(-c3cccs3)nc12 | 1.03 | 0.195
CC1CCC(NC(=O)c2csc3c2CCCC3)CC1 (stereo not drawn) | 1.03 | 1.34
COc1ccccc1NC(=O)C1CCN(S(=O)(=O)c2ccccc2)CC1 | 0.862 | -2.57
CCc1ccc(-c2nc(CSCC(=O)NCc3cccs3)c(C)o2)cc1 | 0.611 | -2.56
O=C(CC1(O)C(=O)N(Cc2ccccc2Cl)c2ccccc21)c1ccccn1 (stereo not drawn) | 0.926 | -0.707
Cc1cccc(-c2cc(C(=O)NCc3ccc(Cl)cc3)c3ccccc3n2)c1 | 1.19 | 4.41
COc1ccc(NC(=O)c2cc(N3CCCCCC3)nc3ccccc23)cc1Cl | 1 | 0.000368
COc1ccccc1NC(=O)Cn1cnc2sc(C(=O)Nc3ccc(F)c(Cl)c3)c(C)c2c1=O | 0.84 | -1.71
Cc1ccc(S(=O)(=O)CCc2nnc(-c3ccc(F)cc3)o2)cc1 | 0.881&1.1 | -1.53&2.52
Cc1ccccc1C(=O)Nc1ccc2oc(-c3ccccc3F)nc2c1 | 1.04 | 2.04
O=C(Nc1nnc(-c2ccccc2)s1)c1ccc(S(=O)(=O)N2CCOCC2)cc1 | 1.03 | 1.35
O=C(Cn1nnc(-c2ccccc2Cl)n1)Nc1cccc(C(F)(F)F)c1 | 1.06 | 0.934
Cc1ccc(Nc2c(-c3cccc(Cl)c3)nc3cc(C)ccn23)cc1 | 0.806 | -3.17
COc1cc(OC)cc(-c2nc(-c3ccc(Cl)cc3)no2)c1 | 1.22 | 0.258
O=C(c1ccc(Cl)c(NC2=NC3CS(=O)(=O)CC3S2)c1)N1CCN(C2CCCCC2)CC1 (stereo not drawn) | 1.01 | 0.281
CC1CCCCC1NC(=O)CC1Oc2ccccc2NC1=O (stereo not drawn) | 1.27 | 1.56

Nothing new here: an excerpt of the list.
SMILES | CBX7 AlphaScr | CBX7 AlphaScr z-score
O=C(NCCc1ccc(Cl)cc1)c1cnn2c(C(F)(F)F)cc(-c3cccs3)nc12 | 1.03 | 0.195
CC1CCC(NC(=O)c2csc3c2CCCC3)CC1 (stereo not drawn) | 1.03 | 1.34
COc1ccccc1NC(=O)C1CCN(S(=O)(=O)c2ccccc2)CC1 | 0.862 | -2.57
CCc1ccc(-c2nc(CSCC(=O)NCc3cccs3)c(C)o2)cc1 | 0.611 | -2.56
O=C(CC1(O)C(=O)N(Cc2ccccc2Cl)c2ccccc21)c1ccccn1 (stereo not drawn) | 0.926 | -0.707

Of the compounds above, 2 contain a CF3 group:
SMILES | CBX7 AlphaScr | CBX7 AlphaScr z-score
O=C(NCCc1ccc(Cl)cc1)c1cnn2c(C(F)(F)F)cc(-c3cccs3)nc12 | 1.03 | 0.195
O=C(Cn1nnc(-c2ccccc2Cl)n1)Nc1cccc(C(F)(F)F)c1 | 1.06 | 0.934

Remaining list, next part.
SMILES | CBX7 AlphaScr | CBX7 AlphaScr z-score
CC1C2c3ccccc3C(c3ccccc32)C1C(=O)Nc1ccc(Cl)cc1 (stereo not drawn) | 1.06 | 2.19
COc1ccc(Nc2cc(C(=O)NCc3ccccc3)c3ccccc3n2)cc1 | 1.04 | 0.0448
O=C(C1=CCN(S(=O)(=O)c2ccc(F)cc2)CC1)N1CCN(c2ccccn2)CC1 | 0.981 | -0.531
Cc1ccccc1NC(=O)c1ccc(S(=O)(=O)N2CCCCC2)cc1 | 0.962 | -0.368
COc1cc(OC)c(NC(=O)CCc2c(C)nc3cc(-c4cccc(F)c4)nn3c2C)cc1Cl | 0.953 | -0.774
COc1ccc(CCNc2nc(-c3ccccc3)cc(C(F)(F)F)n2)cc1OC | 1.21 | 2.27
COCCNC(=O)c1noc2c1CCc1cc(OC)ccc1-2 | 1.05 | 0.41
COc1ccc(CCN2CC(C(=O)NCCc3ccc(C)cc3)CC2=O)cc1OC (stereo not drawn) | 1.03 | 0.924
CCCCN(C)C(=O)CS(=O)(=O)Cc1nc(-c2cccc(OC)c2)oc1C | 1.21 | 1.82
CCC(=O)N1CCc2cc(S(=O)(=O)N3CCN(c4ccccc4)CC3)ccc21 | 0.819 | -0.732
COc1ccccc1OCCn1c(SCc2nc3ccccc3[nH]2)nc2ccccc21 | 1.13 | 0.471
COc1ccc(-c2cn3c(C)c(C(=O)NCc4ccc5c(c4)OCO5)sc3n2)cc1 | 1.01 | 0.187
CCOc1ccc(C(=O)Nc2cccc(-c3nc4ccccc4s3)c2)cc1Br | 1.08 | 0.796
COc1ccc(Cc2cnc(NC(C)=O)s2)cc1 | 0.986 | -0.0894
O=C(Cn1cc2c(n1)CCCC2)NCc1cccc(Cl)c1 | 1.08 | 2.53
CN(C)c1ccc(CNc2ccc3oc(-c4ccccc4)nc3c2)cc1 | 0.836 | -1.68
O=C(Cn1ncc2c1-c1ccccc1OC2)Nc1ccc2c(c1)OCO2 | 0.785 | -2.7
CCCCCOc1ccc(CC2CC(=O)NC2=O)cc1 (stereo not drawn) | 1.25 | 1.81
CCC(C)NC(=O)C1(C)CCC(=O)N1Cc1cc(OC)ccc1OC (stereo not drawn) | 0.863 | -2.25
CCCCCn1c(CNC(=O)c2ccc(Cl)cc2)nc2ccccc21 | 1.06 | 0.566
COc1ccccc1CNC(=O)CSc1nc2nc(C)c(Cc3ccccc3C)c(C)n2n1 | 0.916 | -0.147
O=C(CN1C(=O)CSc2ccc(S(=O)(=O)N3CCCCC3)cc21)NCc1cccs1 | 1.03 | 1.08
COc1ccc2c(c1)CCc1c(C(=O)NCc3ccc(F)cc3)noc1-2 | 1.09 | 0.113
CC(=O)Nc1ccc(Oc2ccc3c(c2)C(=O)N(c2ccccc2C)C3=O)cc1 | 0.982 | -0.509
Cc1cccc(-n2c(=O)cc(N3CCN(c4ccc(F)cc4)CC3)[nH]c2=O)c1 | 1.01 | 0.465
COc1ccc(NC2CC(=O)N(c3cccc(Cl)c3)C2=O)cc1 (stereo not drawn) | 0.9 | -1.53
Cc1ccc(S(=O)(=O)NC(=O)Nc2ccc(-c3nc4ccc(C)cc4s3)cc2)cc1 | 1.15 | 4.25
c1ccc(-c2nnc3ccc(N4CCCC4)nn23)cc1 | 0.939 | -1.38
COc1cccc(-c2nn(C)c3sc(C(=O)N4CCN(c5cc(C)ccc5C)CC4)cc23)c1 | 0.868 | -3.69
O=C(CSc1nccn1-c1ccc(F)cc1)Nc1cc(C(F)(F)F)ccc1Cl | 0.73 | -2.11

SMILES | CBX7 AlphaScr | CBX7 AlphaScr z-score
CCOc1ccc(CCNC(=O)c2cc3c(-c4ccc(Cl)cc4)nn(C)c3s2)cc1OCC | 1.1 | 0.435
Cc1cccc(CSc2nc3ccc(C)cc3[nH]2)c1 | 1.09 | 3.7
COc1ccc(OC)c(/C=C/c2nc3ccccc3c(=O)n2-c2ccc(OC)c(Cl)c2)c1 | 1.21 | 11
Cc1ccccc1NS(=O)(=O)c1ccc2[nH]cc(C(=O)N(C)Cc3ccccc3)c(=O)c2c1 | 0.984 | -0.104
Cc1ccnc(N2C(=O)c3ccccc3C2Nc2ccc(Cl)cc2)c1 (stereo not drawn) | 0.973 | -0.0679
CC(C)c1ccc(Nc2cc(C(=O)NCCN3CCCC3)c3ccccc3n2)cc1 | 1.3 | 0.304
Cc1ccccc1NC(=O)c1cc2c(n(-c3ccc(Cl)cc3)c1=O)CCCC2=O | 0.956 | -0.894
CCOc1ccc(OCC)c(NC(=O)CCCN2C(=O)c3cccnc3C2=O)c1 | 0.552 | -4.28
O=C(NCc1ccc2c(c1)OCO2)[C@@H](c1ccccc1)N1Cc2ccccc2C1=O | 1.05 | 2.11
O=C(Nc1ccc(F)c(Cl)c1)c1cc(-c2ccc(Br)cc2)on1 | 1.08 | 0.112
CCCCN(CCCC)S(=O)(=O)c1ccc2oc(C(=O)NCc3ccc(C)cc3)c(C)c2c1 | 1.09 | 2.05
Cc1nc2c(C(=O)NC3CCCCC3)cnn2c(C)c1Cc1ccccc1Cl | 0.979 | -0.569
COc1cccc(-c2nn(C)c3sc(C(=O)Nc4ccc5c(c4)OCCO5)cc23)c1 | 0.921 | -1.01
O=C(NCCCN1CCCCC1)Nc1cccc(Cl)c1 | 1.06 | 2.13
CCC(C)NC(=O)c1cn(-c2ccc(Cl)cc2)c(=O)c2ccccc12 (stereo not drawn) | 0.991 | -0.124
CC(NC(=O)C(NS(=O)(=O)c1cccc2cccnc12)c1ccccc1)c1ccccc1 (stereo not drawn) | 0.937 | -0.745
COc1cccc(-c2cc(C(=O)Nc3sc4c(c3C#N)CCC4)no2)c1 | 0.903 | -0.567
Cc1nc(N2CCN(c3ccccc3F)CC2)c2c(C)c(C)sc2n1 | 1.26 | 2.73
O=C(Nc1ccc2oc(Cc3ccc(Cl)cc3)nc2c1)c1cccnc1 | 0.891 | -1.19
COc1ccccc1-c1cc(=O)n(CC(=O)NCc2ccccc2Cl)c2c1CCCC2 | 1.01 | 0.213
O=C(O)c1cccc(Nc2nc(-c3ccc(Cl)c(Cl)c3)cs2)c1 | 0.548 | -8.5
CC1CCN(c2oc(COc3ccccc3F)nc2C#N)CC1 | 0.815 | -1.15
CCCc1ccc(OCc2nc(-c3ccc(NC(=O)c4ccc5c(c4)OCO5)cc3)no2)cc1 | 1.25 | 3.26
O=C(c1nn2c(c1Cl)NC(c1cccs1)CC2C(F)(F)F)N(Cc1ccccc1)c1ccccc1 (stereo not drawn) | 0.84 | -1.33
O=C(CCn1c(=O)[nH]c2ccsc2c1=O)N1CCN(c2ncccn2)CC1 | 1.05 | 0.216
Cc1ccc(Cn2c(SCc3cccc(F)c3)nc3ccncc32)cc1 | 0.918 | -0.854
O=C(NC1CCCC1)c1ccc(CNc2c(N3CCCCC3)c(=O)c2=O)cc1 | 0.908 | -0.211
Cc1ccc(CNC(=O)c2cc(C)nc3ccccc23)cc1 | 0.981 | -0.402
CC(=O)Nc1ccc(C(=O)NCCc2nc3ccccc3[nH]2)cc1 | 0.85 | -1.62
CC(NC(=O)c1cc(-c2ccccc2Cl)nc2ccccc12)c1ccccc1 (stereo not drawn) | 1.03 | 1.32

mol	CBX7 AlphaScr	CBX7 AlphaScr z-score
NC(=O)CSc1nc2ccccc2n1Cc1cccc2ccccc12	1.04	1.24
CCc1ccc(-c2cc(C(=O)Nc3nn[nH]n3)c3ccccc3n2)cc1	1	0.12
O=C(NCCc1ccccc1)C1CCN(c2nnc(-n3cccc3)s2)CC1	1.03	1.13
CCOCCCN1C(=O)CN(C2CCCCCC2)C(=O)C1c1ccc(OC(C)C)c(OC)c1 (stereo not drawn)	1.02	0.171
Cc1cccc(C)c1NC(=O)C1CCCN(Cc2ccccc2)C1 (stereo not drawn)	0.978	-0.44
CCOC(=O)c1cnc2ccc(OCC)cc2c1NCCN(C)C	1.09	0.886
C#CC(C)(C)NC1(c2nnnn2-c2c(C)cccc2C)CCCC1	0.831	-3.59
Cc1c(C(=O)N2CCc3ccccc3C2)oc2ccc(S(=O)(=O)N3CCCCCC3)cc12	0.833	-3.02
Cc1ccc(NC(=O)C2CCCN2S(=O)(=O)c2cccc3cccnc23)c(C)c1 (stereo not drawn)	0.742	-8.69
CC(=O)CC1(O)C(=O)N(Cc2ccccc2Cl)c2ccccc21 (stereo not drawn)	0.894	-1.12
N#Cc1ccc(C(=O)Nc2ccccc2-c2nc3ccccc3[nH]2)cc1	1.04	0.984
CCOc1ccc(NC(=O)c2ccc(CNc3c(N4CCC(C)CC4)c(=O)c3=O)cc2)cc1	1.02	0.689
O=C1CN(C(=O)Cc2cccc3ccccc23)C(c2ccccc2)c2cc(F)ccc2N1 (stereo not drawn)	0.875	-0.526
CCC(C)NC(=O)C1(C)CCC(=O)N1Cc1ccccc1OC (stereo not drawn)	1.05	0.875
Cc1cccc(CCNC(=O)c2ccc3c(c2)N(Cc2cccc(F)c2)C(=O)c2ccccc2S3)c1	1.08	2.21
O=S(=O)(Nc1nc2nccc(-c3ccccc3)n2n1)c1ccccc1	0.745	-2.44
COc1ccc(NC(=O)CSc2nc3nc(C)c(Cc4cc(C)ccc4C)c(C)n3n2)c(OC)c1	1.06	0.591
O=C(Nc1nnc(C2CC2)o1)c1ccc(S(=O)(=O)N2CCCCC2)cc1	0.0124*	-2.76*
Cc1c(C(=O)NCc2ccccn2)oc2ccc(S(=O)(=O)N3CCCCC3)cc12	0.702	-4.12

Some of the compounds tested, so the mix of outcomes need not match the whole.
